PABP polyA inh – blocks human PABP binding to poly(A) RNA; fluorescence polarization; AID 2014; inhibition, % at 35 µM; P11940; 290,000 tested, 1% active;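 active = 50% or more with normal probe brightness, or confirmed in later tests; about a fifth of its hits are not listed in these tables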;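 also: calls also rest on retests at 20 µM and on dose response follow-up; controls were probe without protein and protein plus probe with vehicle; some compounds called inactive have numbers as strong as hits; many hits fall short of the cut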
Target sequence (P11940 whole entry, looked up): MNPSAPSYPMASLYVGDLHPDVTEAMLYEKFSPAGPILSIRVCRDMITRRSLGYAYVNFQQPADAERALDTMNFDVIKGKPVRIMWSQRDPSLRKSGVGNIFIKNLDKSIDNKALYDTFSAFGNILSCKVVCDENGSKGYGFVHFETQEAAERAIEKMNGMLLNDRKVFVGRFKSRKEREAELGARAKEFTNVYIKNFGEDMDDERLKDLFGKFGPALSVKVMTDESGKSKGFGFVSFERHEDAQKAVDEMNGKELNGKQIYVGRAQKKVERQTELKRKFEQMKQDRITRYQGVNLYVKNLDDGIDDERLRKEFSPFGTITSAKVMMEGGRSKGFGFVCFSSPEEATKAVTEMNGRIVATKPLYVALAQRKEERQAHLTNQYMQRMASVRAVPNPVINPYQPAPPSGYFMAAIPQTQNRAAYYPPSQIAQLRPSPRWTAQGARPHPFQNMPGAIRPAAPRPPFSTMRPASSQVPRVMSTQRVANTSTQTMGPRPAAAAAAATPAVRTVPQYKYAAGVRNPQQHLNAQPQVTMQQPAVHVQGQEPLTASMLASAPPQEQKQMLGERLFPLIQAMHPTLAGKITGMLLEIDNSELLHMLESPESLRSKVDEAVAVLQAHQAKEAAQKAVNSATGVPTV
CSC inhib – cancer stem cell inhibition; AID 2717; cancer stem cell-like cells viability, luminescence; inhibition, % at 7.5 µM; 300,000 tested, 1.1% active;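 active = mean at 75% or more and at least half the replicates too; tested in HMLE shEcad cells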;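 also: 0% = median of negative and 100% = median of positive control wells; the first replicate is given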
MT1-MMP act inh – blocks activation of human MT1-MMP; P50281; HT1080 RFP-PRO-GFP cells, GFP/RFP ratio fluorescence, overnight; percent of plate control window, DMSO zero; GFP/RFP ratio change, % at 20 µM; 360,000 tested, 0.061% active; AID 651647;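 active = GFP/RFP ratio change of at least 30% with cell ATP level not reduced by more than half and red fluorescence within 50% of control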; also: strong numbers were not always called active
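Assay system: RFP-PRO-GFP reporter HT1080 cells; read-out basis: GFP/RFP fluorescence ratio; benchmarks: DMSO wells and RFP-L50D-GFP cells; doses: 20 µM single dose, 1% DMSO; schedule: overnight cell settling, then overnight compound exposure, 37 °C, 5% CO2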
Rce1 inh – inhibitors of yeast Ras-converting enzyme; Q03530; 290,000 tested, 0.27% active; calls only; AID 2563; yeast membranes, quenched prenylated peptide cleavage fluorescence;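 active = fall in fluorescence gain of 50% or more versus controls, with final raw signal at or below 3038400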;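 also: plate controls were neutral control wells for no effect and wells lacking membranes for full effect; tested at 10 µM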
Yeast UUG start – alters start codon recognition fidelity in yeast; S. cerevisiae UUG-firefly luciferase reporter, luminescence/redox ratio; activity score, % at 18.7 µM; 350,000 tested, 0.13% active;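 active = replicate mean at a twofold rise or more, about +100% in these data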;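 also: firefly luciferase made from a UUG start codon reports start codon fidelity; reporter light over untreated wells divided by growth signal over untreated wells; some hits fall short of that in this replicate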
eIF4H FP inh – inhibitors of RNA binding by human eIF4H | 290,000 tested, 0.94% active | inhibition, % at 35 µM | eIF4H fluorescence polarization binding assay | AID 2012;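 active = 50% or more with normal probe brightness, or confirmed in later tests; about a fifth of its hits are not listed in these tables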;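 also: calls also rest on retests at 20 µM and on dose response follow-up; 0% = protein and probe with vehicle and 100% = probe without protein; strong numbers were not always called active; many hits fall short of the cut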
Env fusion inh – inhibitors of HIV Env-mediated cell fusion; 360,000 tested, 1.1% active; inhibition, % at 12.3 µM; AID 651610; HeLa-JRFL Env/CEM21 cell fusion, luciferase;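 active = mean replicate inhibition score of at least 50 and every replicate individually at or above 50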;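 also: 0% = plate neutral controls and 100% = maraviroc near 300 nM; one replicate is shown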
eIF4H FP inh retest – further read-out of eIF4H FP inh, marked with its call; inhibition, %; compound at 20 µM; confirmation average;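 mean of two retest wells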
PABP polyA inh retest – further read-out of PABP polyA inh, marked with its call; inhibition, %; compound at 20 µM; confirmation repeats;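 mean of two retest wells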
MT1-MMP act inh RFP – recorded beside MT1-MMP act inh, whose call it bears; RFP signal change, %; measured here: RFP expression control read;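 0 = vehicle wells; hits needed this value within 50% of zero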
The depositor's hits bear a star; i = inactive; nt = not tested or not shown; & = joins results of further samples.

SMILES | PABP polyA inh | CSC inhib | MT1-MMP act inh | MT1-MMP act inh RFP | Rce1 inh | Yeast UUG start | eIF4H FP inh | Env fusion inh | others
CCc1ccc(OCCNC(=O)c2ccco2)cc1 | -8 | 3 | -6 | -6 | i | -17 | 6 | 6
COc1ccc2c(=O)c(-c3ccccc3)coc2c1 | 33 | -9 | 0 | -2 | i | -12 | 8 | nt
O=C(O)c1ccc2c(=O)n3c(nc2c1)/C(=C/c1cccc(Cl)c1Cl)CCCC3 | -3 | -9 | 8 | -4 | i | -13 | 1 | nt
Cc1ccc(S(=O)(=O)N(CC(=O)Nc2ccc(Cl)c([N+](=O)[O-])c2)C2CCCCC2)cc1 | 44 | 22 | -10 | -24 | i | nt | -3 | 10
c1ccc(-c2nc(C3CCCCC3)c3ccccc3n2)cc1 | nt | 35 | 0 | 1 | i | -16 | nt | -8
COc1ccc(-c2oc(/N=C/N3CCCC3)c(C#N)c2-c2ccc(OC)cc2)cc1 | -3 | -4 | 3 | -1 | i | nt | -5 | nt
Cc1onc(-c2c(Cl)cccc2Cl)c1C(=O)N1CCc2ccccc21 | 0 | 10 | -21 | -9 | i | 4 | -13 | -39
NC(=O)C1(c2ccccc2)CCC(=O)N1c1ccccc1 (stereo unspecified) | -5 | -12 | 3 | -7 | i | -17 | -3 | -4
COc1cc2ccccc2cc1C(=O)NC(=S)Nc1nnn(C)n1 | -4 | -3 | 3 | 5 | i | nt | 1 | 7
COc1ccc(CNC(=O)c2ccc(Cl)c(S(=O)(=O)N3CCCCCC3)c2)cc1 | nt | nt | -2 | -10 | nt | 2 | nt | 6
O=C1NC(=Nc2cccc(Cl)c2)SC1Cc1cccc(Cl)c1Cl (stereo unspecified) | -9 | 29 | -2 | -7 | i | -11 | 3 | nt
N#CC[C@H](c1ccccc1)N1CCN(Cc2ccccc2)CCC1=O | -4 | 1 | -3 | 2 | i | 4 | 2 | -23
COc1ccc(CN(C)C(=O)CNC(=O)CNC(=O)c2ccc(Cl)cc2Cl)cc1F | 2 | -12 | 3 | 0 | i | -8 | -16 | 0
O=S(=O)(NCc1ccc(Cl)cc1)c1ccc(Cl)nc1 | 8 | -8 | 0 | 1 | i | nt | 6 | nt
COc1ccccc1N(CC(=O)Nc1ccccc1C(=O)NC(C)C)S(C)(=O)=O | -6 | nt | 2 | 3 | i | 4 | -5 | nt
CNc1ccc([N+](=O)[O-])cc1-c1nc2ccccc2[nH]c1=O | -1 | -18 | -6 | 1 | i | -9 | 20 | -7
COc1cccc(C(=O)OCC(=O)Nc2cc(C)c(C)cc2[N+](=O)[O-])c1 | 8 | -18 | 1 | 2 | i | nt | 15 | -17
CC(=O)N1CCN(c2ccc(S(=O)(=O)NCCN(C(C)C)C(C)C)cc2[N+](=O)[O-])CC1 | 3 | -12 | 2 | 5 | i | nt | -9 | 16
C[C@H](NC(=O)c1ccccc1Cl)C(=O)OCCOc1cccc(Cl)c1 | 2 | -11 | 0 | 4 | nt | nt | -3 | 10
CCCC(=O)Nc1ccc2c(c1)COC2=O | 46 | -16 | -1 | 5 | i | nt | -9 | 15
O=C(Cn1cnc2ccccc21)Nc1ccc(C(=O)O)cc1 | -8 | 0 | 5 | 2 | i | -8 | -16 | 4
Cc1ccc(-c2nc(CSCC(=O)NCC3CCCO3)c(C)o2)cc1 (stereo unspecified) | -4 | -9 | 0 | -3 | i | nt | -7 | -2
Cc1c(OCC(F)(F)F)ccnc1CSc1nc2ccccc2[nH]1 | -2 | -15 | 9 | -9 | i | -14 | 2 | -45
Cn1c2ccccc2c2nnc(SCC(=O)NC3CCCC3)nc21 | -10 | -12 | 3 | 0 | i | -13 | -5 | 5
CCOC(=O)c1ccccc1NC(=O)CSc1nccn1C | 28 | -6 | -1 | 0 | nt | -22 | 3 | nt
O=C(Nc1ccc(Cl)cc1-c1nc2ccccc2s1)c1ccco1 | -15 | 3 | -1 | 1 | i | nt | -2 | nt
COc1ccc(S(=O)(=O)N2CCc3ccccc32)cc1[N+](=O)[O-] | -1 | -10 | 1 | -13 | i | -5 | 6 | 13
Cc1cc(Nc2ccccc2F)n2ncnc2n1 | 3 | nt | 10 | 3 | i | -16 | 9 | -25
O=C(CSc1ncnc2ccccc12)NCc1ccco1 | 7 | -1 | -4 | -3 | i | -13 | 12 | nt
O=C(Cc1ccc(S(=O)(=O)N2CCOCC2)s1)N1CCN(S(=O)(=O)c2cccc([N+](=O)[O-])c2)CC1 | nt | -7 | 6 | -6 | i | -18 | nt | 31
COc1cccc(NC(=O)C(=O)N2CCOCC2)c1 | -8 | -28 | 0 | 1 | nt | -30 | 0 | nt
CP(C)(=O)CCP(=O)(c1ccccc1)c1ccccc1 | -3 | nt | -9 | 1 | i | nt | -9 | -20
O=c1c(Cc2ccc(F)cc2)c(O)ccn1Cc1cccc(Cl)c1 | 4 | 4 | 3 | -2 | i | 3 | -7 | nt
O=C(CNC(=O)Cc1ccccc1)N=Nc1c(O)[nH]c2ccc(Br)cc12 | 11 | -6 | -2 | 0 | i | -7 | -11 | 3
CCCc1cc(=O)[nH]c(SCC(=O)N2CCc3ccccc3C2)n1 | nt | 13 | 1 | 2 | nt | 5 | nt | nt
COc1ccc(NC(=O)COc2ccc(/C=N/NC(=O)c3cccnc3)cc2OC)cc1 | 6 | -9 | -2 | 1 | i | nt | -1 | -1
CN(C)CCCNC(=O)C[C@H]1C[C@H](C(=O)N2CCOCC2)[C@@]2(C)c3[nH]c4ccc(Cl)cc4c3CCN2C1=O | nt | nt | 2 | 2 | nt | 1 | nt | -22
COc1ccc(C2=C(CN(C)C)C(c3ccccc3)c3ccccc3O2)cc1 (stereo unspecified) | 17&-3 | 29&46 | -4 | -8 | i | 1 | -8&2 | nt
COCCn1c(SCC(=O)NNC(=O)c2ccc(OC)c(OC)c2)nc2ccccc2c1=O | 2 | 2 | 9 | 2 | i | nt | -2 | -8
CCc1nnc(NC(=O)COc2ccccc2[N+](=O)[O-])s1 | 10 | -7 | 3 | 1 | i | -20 | -3 | -8
C/C(=N\N=C1/NC(=O)C(C)S1)c1ccco1 (stereo unspecified) | -6 | -14 | -1 | 3 | i | -21 | -12 | -22
C(=C\c1ccccc1)/C=N/Nc1nncc(-c2ccccc2)n1 | -7 | -4 | nt | nt | i | nt | -4 | -3
CCCCNC(=O)CCc1nc2cccnc2n1Cc1ccc(OC)cc1 | -6 | 2 | 2 | 0 | i | -16 | -2 | 9
CCCC(=O)Nc1ccccc1N1CCN(C(=O)c2ccccc2)CC1 | -2 | -10 | 2 | -1 | i | 9 | -3 | -27
CCn1nc(C(=O)NCCc2ccc3c(c2)OCCO3)c2ccccc2c1=O | nt | -1 | 2 | 3 | nt | nt | nt | 26
COc1ccc2[nH]c(=O)c(CN(C(=O)COc3ccccc3)C(C)C)cc2c1 | -9 | -9 | -2 | -8 | i | -4 | -6 | nt
COc1ccc(/C=N/NC(=O)COc2cccc3cccnc23)cc1OC | 10 | 3 | 1 | 5 | i | nt | -2 | -2
COc1ccc(OCC(=O)Nc2ccc(S(=O)(=O)N3CCN(C)CC3)cc2)cc1 | 0 | -16 | 3 | 3 | nt | nt | -1 | 8
Cc1ccc(N(C(=O)c2csnn2)C(C(=O)NC2CCCC2)c2ccccn2)cc1 (stereo unspecified) | 9 | 7 | -2 | 3 | i | -14 | -6 | 3
O=C(CSc1nnc(-c2ccncc2)n1-c1ccc(Cl)cc1)Nc1ccc(C(=O)O)cc1 | -6 | 1 | -3 | -2 | i | -1 | 8 | 8

More results:
SMILES | PABP polyA inh | CSC inhib | MT1-MMP act inh | MT1-MMP act inh RFP | Rce1 inh | Yeast UUG start | eIF4H FP inh | Env fusion inh | others
Cc1ccc(Sc2cc(C)nc(-c3ccccn3)n2)cc1 | -6 | -3 | 2 | -5 | i | -40 | -8 | -13
COc1ccc(NC(=S)N(CCCN2CCCCC2)Cc2cccs2)cc1 | 4 | 23 | 1 | 1 | i | -12 | -3 | -29
CC1CCCN(C(=O)Cn2cnc3c2c(=O)n(C)c(=O)n3C)C1 (stereo unspecified) | -1 | 6 | 0 | 1 | i | -12 | -6 | -80
CCN(CC(=O)Nc1ccccc1OC)C(=O)CSCc1c(C)noc1C | 8 | -10 | 2 | 0 | i | -14 | 11 | -8
O=C(COC(=O)CCCC1=NS(=O)(=O)c2ccccc2N1)Nc1ccccc1 | nt | 10 | 1 | 6 | i | -6 | nt | 5
C=Cn1cc[n+](CC(=O)c2ccc(Cl)c(Cl)c2)c1 | -7 | -4 | -3 | 2 | i | -3 | -4 | 16
CCOCCCn1c(SCC(=O)Nc2cc(C(C)(C)C)nn2-c2ccccc2)nc2ccccc2c1=O | 3 | 7 | 4 | 6 | i | nt | -7 | 2
Cn1c(=O)n(Cc2ccccc2Br)c2ccccc21 | 4 | -4 | 1 | 4 | i | -14 | -1 | -15
CN(C)c1nc(SCCOC(=O)Nc2ccccc2)nc(N(C)C)n1 | 0 | nt | -1 | -2 | i | 3 | -11 | -27
O=C(Nc1ccon1)Nc1ccccc1C(F)(F)F | 16 | -5 | 1 | 5 | i | -17 | -4 | nt
Cc1ccc(S(=O)(=O)Nc2nc3cc(C)c(C)cc3[nH]2)cc1 | -5 | -12 | 6 | 1 | i | nt | -17 | 26
CC1CCC(NC(=O)COc2ccccc2C(N)=O)CC1 (stereo unspecified) | -11 | 1 | 2 | 3 | i | 10 | -5 | nt
Oc1ccc(CCC2CCCCN2Cc2nc(C3CC3)no2)cc1 (stereo unspecified) | -4 | 20 | 0 | -2 | i | nt | -2 | 7
O=C(NCc1cccs1)c1csc2c1CCCCC2 | 6 | 6 | 1 | 5 | i | nt | 3 | nt
COc1ccc(Br)cc1C(=O)Nc1ccc(Cc2ccncc2)cc1 | -3 | 46 | -3 | -16 | i | -6 | -12 | 34
Cc1ccc(C(=O)NC(=S)NCc2cccnc2)c(C)c1 | 1 | -4 | 1 | -7 | i | nt | -5 | 4
Cc1ccc(C(=O)NCC(=O)OC(C)C(=O)Nc2ccc(N3CCOCC3)cc2)s1 (stereo unspecified) | -7 | -7 | 1 | -2 | i | -34 | -5 | -7
CCOc1ccc(NC(=O)CN(C)C(=O)/C=C/c2ccco2)cc1OCC | nt | -2 | 0 | 1 | nt | 9 | nt | -14
Cc1cccc(C(=O)NCC(=O)N2CCN(c3ccc(Cl)cc3)CC2)c1 | 1 | -5 | 2 | -10 | i | -12 | -12 | -20
O=C(N/N=C/c1ccc[nH]1)c1cc(-c2ccc(Cl)cc2)nc2ccccc12 | -15 | 46 | -8 | -19 | i | nt | -4 | -5
CC(C(=O)OCC(=O)NC1CCCC1)N1C(=O)c2ccccc2C1=O (stereo unspecified) | nt | 9 | -1 | 1 | nt | nt | nt | -5
C(#Cc1ccccc1)CN1CCN(c2ccccn2)CC1 | 12 | 4 | 0&7 | 2&10 | nt | 6 | -12 | -7&10
Cc1cc(C)c(C#N)c(SCC(=O)Nc2ccccc2C)n1 | 0 | 6 | -3 | -1 | i | nt | -2 | -17
COc1ccc(C2NC(=S)N(c3ccccc3)C(C)=C2C(=O)Nc2ccccc2)cc1 (stereo unspecified) | -6 | 1 | -1 | -4 | i | -9 | -2 | -197
Cc1ccnc(NS(=O)(=O)c2ccc(NC(=O)Cc3cccs3)cc2)n1 | 13 | -7 | -4 | 6 | i | -5 | 60 | nt | eIF4H FP inh retest=-2;PABP polyA inh retest=11

High-throughput results deposited in PubChem BioAssay by several laboratories.
